# Bioassay records deposited in PubChem BioAssay by National Center for Advancing Translational Sciences (NCATS).
# miR-21 reporter = qHTS Assay for Modulators of miRNAs and/orActivators of miR-21 | HeLa miR-21 FLuc reporter, luciferase, 48 h | Potency, µM (series often up to 38.3 µM), without a hit: at the highest dose reporter change, positive = more light | 340,000 tested, under 10 active; active = well fitted rising curve with a large enough effect; inconclusive = small, poorly fitted or top-dose-only effect; inactive = no such curve, though single readings can be large or run the other way;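 note: % of control where 0% means no effect; miR-21 action dims this reporter so a rising signal means less miR-21 action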
#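 Luminescence from a firefly luciferase reporter carrying a miR-21 binding site downstream, stably expressed under a CMV promoter in HeLa cells that make miR-21 endogenously, reports miRNA modulation after 48 h compound exposure up to approximately 40uM final.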
# Rango release inh = qHTS Assay for Inhibitors of RanGTP induced Rango (Ran-regulated importin-beta cargo) - Importin beta complex dissociation. actives 0.071% (n = 340,000). Potency, µM (highest dose often 46.1 µM), for inactives: top-dose activity change, negative = inhibition. Biochemical FRET Rango-importin beta, RanGTP-induced dissociation. AID 540253, 2011; active means falling FRET ratio curve, often poorly fitted, with flat reads before Ran was added; inconclusive means other falling curves, or compound fluorescence or quenching; inactive means flat or rising ratio curve;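 note: potency is the fitted concentration of half-maximal effect; % of control where 0% means no effect; nearly all actives have a fitted effect of over 45% in size; -100% = wells without RanGTP and RCC1; the record marks most hits as doubtful in a second field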
#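 Quantitative HTS using a FRET biosensor: 0.1 uM Rango, 0.25 uM importin beta, 0.6 uM Ran, 2 mM GTP, 0.2 uM RCC1 final, PBS with DTT, Tween-20 and BSA. Post-read taken 45 min after Ran addition.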
# GLA inh pH 4.5 = qHTS Assay for Inhibitors of Human alpha-Galactosidase at pH 4.5. purified enzyme, 4-MU-alpha-Gal fluorescence, pH 4.5. AID 1467, 2008. activity change, negative = inhibition, % at 105 µM. 230,000 tested, under 10 active; inconclusive = small, poorly fitted or top-dose-only inhibition, or a rising curve; inactive = flat fitted curve, though single readings scatter; no compound was filed as active;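 note: 0% = full activity with enzyme and -100% = basal without enzyme; dose as in the result columns while the protocol names 77 µM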
# Target sequence (P06280 whole entry, looked up): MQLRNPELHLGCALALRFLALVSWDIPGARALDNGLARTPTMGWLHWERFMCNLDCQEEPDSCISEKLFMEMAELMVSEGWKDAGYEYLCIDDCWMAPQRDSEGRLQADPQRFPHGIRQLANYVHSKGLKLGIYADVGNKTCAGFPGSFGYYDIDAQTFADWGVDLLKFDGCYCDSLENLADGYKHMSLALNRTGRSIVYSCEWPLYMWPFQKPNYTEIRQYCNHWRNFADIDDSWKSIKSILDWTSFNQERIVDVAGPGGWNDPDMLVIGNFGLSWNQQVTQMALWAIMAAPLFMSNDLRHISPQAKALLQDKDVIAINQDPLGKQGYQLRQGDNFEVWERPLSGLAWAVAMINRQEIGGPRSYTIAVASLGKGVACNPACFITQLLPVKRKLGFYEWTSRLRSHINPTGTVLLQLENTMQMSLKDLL
# Rango-impB inh = qHTS Assay for Inhibitors of Rango (Ran-regulated importin-beta cargo) - Importin beta complex formation; Importin subunit beta-1 (Homo sapiens), Q14974; Rango CFP/YFP FRET sensor + importin beta, 45 min; Potency, µM (series often up to 92.2 µM), without a hit: at the top dose inhibition of complex formation; actives 0.031% (n = 340,000); active = rising FRET ratio curve, often small or poorly fitted; inconclusive = mostly compound fluorescence or quenching in the first reads; inactive = flat curves in all reads;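 note: potency is the fitted concentration of half-maximal effect; 0% = DMSO wells and 100% = buffer wells lacking importin beta; nearly all actives have a fitted effect of over 15% in size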
#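 Inhibition scored from the CFP 486 nm/YFP 530 nm FRET ratio 45 min after adding 0.125 microM importin beta to 50 nM Rango biosensor preincubated 5 min with compound (room temperature, PBS with DTT, Tween-20, BSA). No-importin wells as positive control.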
# An asterisk follows results filed as active; u = inconclusive; x = no result given; [ ] = remark or other dose.
SMILES,miR-21 reporter,Rango release inh,GLA inh pH 4.5,Rango-impB inh
O=c1[nH][nH]c(C(F)(F)F)c1C=Nc1ccc(Cl)cc1,-2%,12%,-22,4.4%
CC1CCc2c(sc3ncnc(SCC(=O)Nc4ccc(C(=O)O)cc4)c23)C1 (stereo not given),-9%,-5%,x,5.5%
COc1ccccc1N1CCN(C(=O)CCC(=O)Nc2nnc(C(C)C)s2)CC1,-2%,14%,x,0.0%
Cc1cc(-c2ccccc2)nc(N/N=C/c2ccccc2)n1,-18%,4%,x,0.7%
C[C@H]1C=C(C(=O)N2CCN(Cc3ccc4c(c3)OCO4)CC2)O[C@@H](OCc2ccc(CO)cc2)C1,1%,-5%,7,0.9%
COc1ccc(NC(=O)c2sc(SCc3ccccc3)nc2N)cc1,-21%,0%,-7,-2.8%
Cc1cc2nccnc2cc1C,x,-12%,x,2.1%
CC1(NC(=O)Cn2cc(C(F)(F)F)ccc2=O)CCS(=O)(=O)C1 (stereo not given),x,-1%,x,-0.6%
CC(C)CNC(=S)NC(=O)c1ccc([N+](=O)[O-])cc1,-24%,-3%,-3,0.1%
CC(=O)Nc1ccc(S(=O)(=O)N2CCN(C(=O)N3CCOCC3)CC2)cc1,0%,-4%,-4,1.4%
CCN(CC)CCNS(=O)(=O)c1ccc(Cl)cc1,-7%,3%,3,-1.8%
Nc1nc(SCc2ccccc2)c2ncn(C3OC(CO)C(O)C3O)c2n1 (stereo not given),x,12%,x,0.4%
Cc1coc2c(C)c3oc(=O)c(CCC(=O)NCCC(=O)O)c(C)c3cc12,4%,-22%,x,-1.8%
COc1ccc(Nc2nc3c(C)cccc3cc2C#N)cc1,3%,-20%,-7,u
CC(NC(=O)c1ccc(C(C)(C)C)cc1)C(=O)O (stereo not given),-5%,-9%,7,0.0%
Cc1ccc2[nH]c(=O)c(CN(C)C(=O)c3cccs3)cc2c1,-20%,14%,-22[21.1 µM],3.1%
Cc1cccc(NC(=O)c2ccc(-n3cccn3)c([N+](=O)[O-])c2)c1,-30%,-3%,-2,-0.2%
CC(=O)Oc1ccc2occ(C(=O)c3ccccc3)c2c1,x,1%,x,0.6%
O=C(NC(=S)Nc1ccccc1)c1ccc(Br)o1,-40%,-4%,6,-1.3%
Cc1csc(NC(=O)c2cc(C)nc3ccccc23)n1,4%,-6%,-4,1.4%
COc1ccc(NC(=O)c2ccco2)cc1NC(=O)c1cccs1,-3%,-15%,2,3.0%
CCOC(=O)N1CCN(C(=O)COC(=O)c2cc(Cl)c(O)c(Cl)c2)CC1,-2%,2%,-12,-0.6%
CCn1cc(C(=O)OCC(=O)N(C)Cc2ccccc2)c(=O)c2ccc(C)nc21,0%,-3%,-4,-0.1%
COc1ccc2c(c1)C1NC(=S)N[C@@](C)(O2)C1C(=O)Nc1ccccc1 (stereo not given in full),6%,16%,2,3.5%
O=C(CSc1nc(=O)n2ccccc2n1)N1N=C(c2cccs2)CC1c1ccc(F)cc1 (stereo not given),x,-7%,x,0.8%
NC(=O)c1ccsc1NC(=O)COC(=O)/C=C/c1ccc([N+](=O)[O-])cc1,-2%,5%,-1,-0.1%
CC(=O)c1ccccc1OC(=O)CCN1C(=O)C2C3C=CC(C4CC34)C2C1=O (stereo not given),4%,3%,3,-0.4%
N#C/C(=C/c1ccc(O)c(O)c1)C(=O)NCc1ccc(Cl)cc1,-12%,u,x,u
CC(=O)Nc1nc(C)c(Oc2cccc(C(F)(F)F)c2)c(=O)[nH]1,-2%,-7%,4,5.7%
COc1ccccc1CNCc1cc(OC)c(OC)cc1OC,2%,-1%,-6,-6.6%
CCCC[C@@H]1CN=C(N)N1CCc1cccc(F)c1,x,1%,x,2.9%
N=c1c2c3c(sc2ncn1N)CCCCC3,7%,-3%,3,0.2%
CS(=O)(=O)Nc1cccc(C2=NN(C(=O)c3ccccc3)C(c3cccs3)C2)c1 (stereo not given),6%,-15%,x,2.0%
C=CC[n+]1c(-c2ccccc2)csc1NC(C)(C)C,-1%,6%,-8,-2.2%
Cc1cc(Cl)cc(Cl)c1OCCN1CCCC1,0%,-3%,x,3.1%
CC1(C)Cc2c(cnn2-c2ccc(F)cc2)C(NC(=O)CCN2CCCC2=O)C1 (stereo not given),-37%,18%,x,3.6%
CCOc1ccc(C2N(c3cc(C)on3)C(=O)C3CCCN32)cc1OC (stereo not given),-2%,-6%,5,2.1%
CCNC(=O)N1C(=O)C2(OCCO2)c2ccccc21,0%,-2%,-4,1.4%
CCOC(=O)CC(=O)Nc1ncnc2c1C(c1ccccc1)c1c(ccc3ccccc13)O2 (stereo not given),x,10%,x,-2.7%
Cc1cccc2sc(N(CCN(C)C)C(=O)C3CCN(S(=O)(=O)c4cccs4)CC3)nc12,x,17%,x,-0.6%
CCOc1cccc2sc(Cl)nc12,-1%,-17%,4,-2.4%
Cc1ccccc1NC(=S)NNC(=O)c1ccoc1C,-36%,3%,5,-0.2%
COc1cc(C=NNc2nc3c([nH]2)c(=O)n(C)c(=O)n3C)ccc1O,x,6%,x,-3.4%
Cc1cccc(C)c1N=Cc1c(C(F)(F)F)[nH][nH]c1=O,0%,-1%,4,0.0%
CS(=O)(=O)N1CCC(C(=O)Nc2cc(Cl)cc(Cl)c2)CC1,0%,-8%,2,-1.3%
Cc1cc(C)n(-c2ccc(NC(=O)C3CCCCN3C(=O)c3sccc3C)cc2)n1 (stereo not given),4%,-15%,x,3.6%
O=S(=O)(NCCc1csc(-c2ccccc2)n1)c1cccnc1,-12%,-18%,2,u
O=C(N/N=C/c1ccc(OCc2ccccc2)cc1)c1ccc(O)cc1,-31%,-12%,-13,2.1%
Cc1onc(-c2ccccc2Cl)c1C(=O)OCC(=O)N1CCC(C)CC1,x,-2%,x,-1.1%
Cc1cc(C(=O)N2CCc3ccccc3C2)n[nH]1,-28%,3%,x,0.3%
COc1ccc(NC(=O)N2CCCC(C(=O)Nc3ccccc3OC)C2)cc1 (stereo not given),4%,6%,x,-1.7%
CS(=O)(=O)NCCCNc1ccc(C(F)(F)F)cc1[N+](=O)[O-],-16%,4%,0,-0.8%
Cc1cc(C)c(CN2CCC(n3nccc3NC(=O)C3CCCC3)CC2)cc1C,2%,-7%,x,0.1%
CCCOc1ccc(-c2nnn(CC(=O)N3CCCC(C)C3)n2)cc1 (stereo not given),2%,2%,11,-4.5%
O=C(CNC(c1ccccc1)c1ccccc1)NCc1ccccc1Cl,-6%,12%,x,0.3%
O=C(CSc1nc2ncccc2[nH]1)NCc1ccccc1,-9%,-4%,4,1.1%
COC(=O)C1=C(C(=O)OC)SC2(S1)C(C(=O)OC)=C(C(=O)OC)SC1=C2c2cc(C)ccc2NC1(C)C,-1%,5%,-19,1.0%
COc1cnn(-c2cccc(Cl)c2)c(=O)c1Cl,x,0%,x,-6.4%
CCN(CC)c1ccc(S(=O)(=O)N2CCOCC2)cc1NC(=O)COC(=O)c1ccco1,x,-14%,x,-0.3%
Cn1nc(C(F)(F)F)c(CN2CC(C)(C)C2=O)c1N1CCOCC1,-1%,-12%,0,-0.4%
# Further structures:
SMILES,miR-21 reporter,Rango release inh,GLA inh pH 4.5,Rango-impB inh
CC(=O)c1cccc(NC(=O)NNC(=O)CCC(=O)Nc2ccc(C)c(C)c2)c1,-3%,-1%,6,-3.0%
Cn1cc(CN2CCN(CC(C)(C)C)C(CCO)C2)c2ccccc21 (stereo not given),-9%,-17%,x,0.6%
c1ccc(Nc2ccnc(Nc3ccccc3)n2)cc1,-11%,u,-10,-2.0%
CC(C)(CO)N=C1NS(=O)(=O)c2cc([N+](=O)[O-])ccc21,2%,0%,-7,-0.8%
O=C(O)CCC1(CCC(=O)O)c2ccccc2-c2ccccc21,6%,18%,x,-2.5%
COc1ccc(Cc2nnc(NS(=O)(=O)c3ccc(Cl)cc3)s2)cc1OC,-17%,-4%,3,-2.0%
CCOc1ccc(CCNC(=O)CCn2ccc3cc(S(=O)(=O)N4CCCC4)ccc32)cc1,13%,1%,x,-0.7%
CCn1c(Cc2ccc(OC)cc2)nnc1SCC(=O)NC1CCCCC1,-2%,4%,11,-1.8%
Nc1ncc(Br)cc1S(=O)(=O)NCCC(=O)NCCc1ccc(Cl)cc1,12%,6%,x,0.6%
CCOc1ccc(/C(O)=C2/C(=O)C(=O)N(CCOCCO)C2c2ccc(F)cc2)cc1 (stereo not given),-5%,6%,0,0.2%
Cc1ccc(NC(=O)CNCCCN2CCOCC2)cc1S(=O)(=O)N1CCCCC1,-3%,0%,1,-3.4%
Cc1nn(C(C)(C)C)c(N)c1-c1ccccc1,-4%,-1%,0,0.0%
CC(=O)c1c(N(C)C)ccnc1C(F)(F)F,-4%,15%,14,-1.8%
N#Cc1c(NC(=O)Cn2cnc3ccccc3c2=O)oc(-c2ccccc2)c1-c1ccccc1,-1%,-3%,-14,1.2%
CC(C)N1CCC(=NNC(=O)c2ccc(Br)o2)CC1,-43%,14%,-18,0.3%
O=C(Nc1c(F)cccc1F)C(c1ccccc1)c1ccccc1,x,6%,x,5.4%
CCCC(=O)Nc1ccc(C(=O)n2ccc(C)n2)cc1,-3%,9%,3,-2.9%
CCCn1nc(C(=O)NNC(=O)c2ccc(OC(F)F)cc2)c2ccccc2c1=O,x,14%,x,-1.9%
O=C(CN1C(=O)CCC1=O)NNc1ccc2ccccc2c1,-6%,-2%,6,-0.7%
O=[N+]([O-])c1cc2c(cc1[N+](=O)[O-])OCCOCCOCCOCCO2,7%,u,-18,-2.6%

# Taken from above.
# Cn1cc(CN2CCN(CC(C)(C)C)C(CCO)C2)c2ccccc21 (stereo not given) in Rango release inh: -17%
# O=C(CN1C(=O)CCC1=O)NNc1ccc2ccccc2c1 in Rango release inh: -2%

# Continued.
SMILES,miR-21 reporter,Rango release inh,GLA inh pH 4.5,Rango-impB inh
CC(=O)c1sc(NC(=O)c2ccc(Cn3cc(Br)cn3)o2)nc1C,2%,16%,2,-1.2%
CCOC(=O)C1CCN(CC(=O)Nc2c(C(=O)OC)[nH]c3cccc(C)c23)CC1,-29%,12%,4,-0.3%
C=CCOc1ccc(/C=C/C(=O)OCC(=O)N2CCN(C(C)=O)CC2)cc1,x,0%,x,0.1%
O=S(=O)(Nc1cccc(S(=O)(=O)N2CCOCC2)c1)c1ccc2c(c1)OCCO2,-1%,-23%,-12,1.1%
Cc1ccc(NC2CCCN(C(=O)c3cn4cc(Cl)ccc4n3)C2)cc1C (stereo not given),4%,-9%,x,5.1%
Cc1ccccc1-c1noc(-c2ccc(Cl)cc2)n1,-23%,0%,5,1.8%
O=S(=O)(CCc1nc2ccccc2o1)c1ccc(Cl)c(Cl)c1,-1%,10%,-7,3.6%
COc1cccc(NC(=O)CN(C)C(=O)CCCc2nc3ccccc3s2)c1,x,-2%,x,-3.6%
Cc1ccccc1NC(=O)CSc1nn2c(=O)c(C)nnc2s1,-2%,2%,-1,1.4%
Cc1cc(C(=O)Nc2nc3ccc(Cl)cc3s2)nn1C,-62%,7%,1,0.1%
CSc1ncccc1C(=O)N1CCN(S(=O)(=O)c2ccc(C)cc2)CC1,10%,0%,x,-2.2%
Cc1ccc(S(=O)(=O)Nc2cccc(C(=O)NCCCN3CCCC3=O)c2)cc1F,x,-14%,x,0.5%

# Profiles, quoted from the list. Values in the order: miR-21 reporter	Rango release inh	GLA inh pH 4.5	Rango-impB inh
# CCOC(=O)C1CCN(CC(=O)Nc2c(C(=O)OC)[nH]c3cccc(C)c23)CC1 across the screens: -29%	12%	4	-0.3%
# Cc1cc(C(=O)Nc2nc3ccc(Cl)cc3s2)nn1C across the screens: -62%	7%	1	0.1%
# Cc1ccccc1-c1noc(-c2ccc(Cl)cc2)n1 across the screens: -23%	0%	5	1.8%

# Three compounds already listed, sorted by the value under miR-21 reporter, low to high.
SMILES,miR-21 reporter,Rango release inh,GLA inh pH 4.5,Rango-impB inh
Cc1cc(C(=O)Nc2nc3ccc(Cl)cc3s2)nn1C,-62%,7%,1,0.1%
CCOC(=O)C1CCN(CC(=O)Nc2c(C(=O)OC)[nH]c3cccc(C)c23)CC1,-29%,12%,4,-0.3%
Cc1ccc(NC2CCCN(C(=O)c3cn4cc(Cl)ccc4n3)C2)cc1C (stereo not given),4%,-9%,x,5.1%

# Some of the compounds tested; rates above refer to the full screens.
